# VACV Venus inh – qHTS for Stage-Specific Inhibitors of Vaccinia Orthopoxvirus: Venus Reporter Primary qHTS; Vaccinia virus Venus reporter expression, fluorescence; Potency, µM (top dose mostly 36.5 µM), for inactives: at the highest dose activity change, negative = inhibition, most hits filed as inhibitors; 330,000 compounds, 0.46% hits; active means well fitted inhibition curve with a large enough effect; inconclusive means small, poorly fitted or top-dose-only effect; inactive means no such curve, though single readings can be large or run the other way; tested in A549 cells; note: nearly all actives have a fitted effect of over 30% in size; inactives centre near -10
# Vaccinia mCherry – qHTS for Stage-Specific Inhibitors of Vaccinia Orthopoxvirus: mCherry Reporter Primary qHTS | Vaccinia virus mCherry reporter infection, fluorescence; about a quarter of the inactives have no number | Potency, µM (series often up to 36.5 µM), without a hit: at the highest dose activity change, negative = inhibition, usual class: inhibitors | 310,000 compounds, 0.63% hits | AID 720579, 2013; active = well fitted inhibition curve with a large enough effect; inconclusive = small, poorly fitted or top-dose-only effect; inactive = no such curve, though single readings can be large or run the other way; tested in A549 cells; note: nearly all actives have a fitted effect of over 35% in size; inactives centre near -10
# * = called active by the depositor; i = inactive; ? = inconclusive; . = no result given; [ ] = dose if it differs, or a comment. % is set by controls: 0 for no effect and ±100 for the full control effect; potency is the fitted concentration of half-maximal effect.
SMILES,VACV Venus inh,Vaccinia mCherry
CC(=NNC1=NCCN1)c1cnn(C2=NCCN2)c1C,3%,54%[activator]
Cc1ccc(NC(=O)CSc2nc3ccc(NC(=O)c4ccco4)cc3s2)cc1,-15%,-5%
CCc1ccc([C@@H]2CC=C(C(=O)O)[C@H](c3ccc(C(C)(C)C)cc3)N2S(=O)(=O)c2ccc(C)cc2)cc1,-20%,?
CCOC(=O)c1c(NC(=O)c2ccc(OC)cc2)sc2c1CCCCC2,5%,-3%
S=C1CN=C(c2ccccc2)c2cc(Cl)ccc2N1,-17%,i
COc1ccc2cnn(-c3ccccc3C)c(=O)c2c1OC,-8%,-21%
CCOC(=O)c1cc(-c2ccccc2)n(-c2cccc(C(=O)N(C)c3ccc(C)cc3)c2)c1C,?,i
Clc1ccc(CNCCc2ccc3c(c2)OCO3)cc1,-13%,i
O=C(NN=Cc1ccc2c(c1)CCN2)c1cccs1,-20%,i
CCN(C[C@H]1N[C@@](CC)(C(=O)OC)[C@H]2C(=O)N(Cc3ccccc3)C(=O)[C@@H]12)C(=O)C1CCCCC1,1%,i
O=C(Cc1ccccc1)Nc1ccc(N2CCCC2)cc1,-10%,.
Cn1c(=O)c2cc(NC(=S)NCc3ccccc3F)ccc2n1C,2%,19%
COc1ccc(S(=O)(=O)NCc2ccc(C(=O)NCc3ccccc3)cc2)cc1,2%,-3%
CCOC(=O)c1c(-c2ccccc2)oc2ccc(OCc3cccc(Br)c3)cc12,2%,-4%
CCS(=O)(=O)N1Cc2ccccc2CC1C(=O)Nc1nc2c(C)cccc2s1 (configuration not stated),-11%,-11%

# One compound at a time (already shown). Order of screens: VACV Venus inh	Vaccinia mCherry
# O=C(NN=Cc1ccc2c(c1)CCN2)c1cccs1 is listed with -20%	i
# CC(=NNC1=NCCN1)c1cnn(C2=NCCN2)c1C is listed with 3%	54%[activator]

# (further entries)
SMILES,VACV Venus inh,Vaccinia mCherry
S=C1NC2=C(CCCC2)C2(CCCCC2)N1,-5%,.
O=C(COc1coc(CN2CCN(c3ccc(F)cc3)CC2)cc1=O)NC1CCCCC1,?,-12%
O=Cc1ccccc1,-7%,-11%
COc1cccc(NC(=O)CC2Oc3ccccc3NC2=O)c1 (configuration not stated),-7%,-15%
C/C(=N/NC(=O)c1cn(-c2cccc(C)n2)cn1)c1ccc(C)cc1,-26%,.
COc1ccc(CNCc2ccncc2)cc1OC,-19%,-6%
C[C@@H]1CN([C@@H](C)CO)C(=O)c2cc(Br)cnc2O[C@H]1CN(C)C(=O)CN1CCOCC1,-4%,-5%
CCOC(=O)C1=C(C)OC(N)=C(C#N)C1c1cc(SCC)oc1C (configuration not stated),-17%,-33%
COc1cccc(Nc2nc3ccc(C)cc3nc2-n2nc(C)cc2C)c1,-5%,-8%
O=[N+]([O-])c1ccc(F)cc1OCc1nc(-c2cccs2)no1,-9%,-19%
O=C(O)c1ccccc1N(c1ccccc1)c1ccccc1,-9%,i
CN(Cc1ccc(F)cc1)C(=O)c1cc(S(=O)(=O)N2CCCCC2)ccc1N1CCOCC1,-12%,i
CC(NC(=O)C1CCOCC1)c1nnc2n1CCN(Cc1ccc(F)cc1)CC2 (configuration not stated),-4%,-15%
CN(CC(=O)Nc1ccccc1Cl)C1CCCCC1,-10%,-7%
Cc1cccc(N2C(=O)NC(=O)/C(=C/c3cc4c(cc3[N+](=O)[O-])OCO4)C2=O)c1,7%,-3%
O=C(CCc1ccccc1)Nc1ccc(S(=O)(=O)N2CCOCC2)cc1,-14%,-27%
CCc1cccc(C)c1NC(=O)CN1C(=O)c2ccccc2S1(=O)=O,-6%,31%
O=C(CC(C(=O)O)c1cccc(Cl)c1Cl)c1ccccc1 (configuration not stated),-2%,-14%
COc1cccc(CC(=O)Nc2ccc(-c3nc4ccccc4s3)cc2)c1,-6%,-9%
COC(=O)c1scc(-c2ccc(C)cc2)c1S(=O)(=O)Nc1c(C)cc(C)cc1C,4%,-4%
CCCS(=O)(=O)c1nc(S(=O)(=O)c2ccc(C)cc2)c(NCCN2CCOCC2)s1,-3%,i
CC1ON=C(c2ccccn2)N(Cc2ccc3c(c2)OCO3)C1=O (configuration not stated),0%,i
Cc1c(C(=O)OC(C)C)sc(NC(=O)C2c3ccccc3Oc3ccccc32)c1C(=O)OC(C)C,-21%,-30%
CN1/C(=C/C(=O)c2nc(S(C)(=O)=O)ncc2Cl)C(C)(C)c2ccccc21,?,28µM*
CCSc1ncc(Cl)c(C(=O)Nc2nnc(CC)s2)n1,-4%,-8%
Cc1ccc(-c2nc3cc(C(C)C)ccc3o2)cc1NC(=O)c1cc2ccccc2o1,-12%,-17%
CSc1cccc(Nc2cc(C(=O)NCCc3ccc(Cl)cc3)c3ccccc3n2)c1,?,?
O=C(Nc1ccc(-c2noc(-c3ccccc3F)n2)cc1)c1cccs1,-5%,i
CC(=O)c1cccc(NC(=O)CN2C(=O)c3ccccc3Sc3ncccc32)c1,4%,-5%
N/C(=N\OC(=O)CCCN1C(=O)c2ccccc2C1=O)c1ccccn1,0%,5%
Cc1cccc(NC(=S)/N=C(\N)Nc2nc(C)c3cc(C)ccc3n2)c1,-17%,?
COC(=O)/C(=C\Nc1cccc(Cl)c1C)c1ncc(C(F)(F)F)cc1Cl,?,.
Cc1nc(SCC(=O)NCc2cccs2)nc(C)c1C,-6%,5%
Cc1ccc(NC(=O)C(C)OC(=O)/C=C/c2ccccc2)cc1 (configuration not stated),-5%,i
NC(CSC(c1ccccc1)(c1ccccc1)c1ccccc1)C(=O)O (configuration not stated),-25%,?
O=C(COc1ccc(F)cc1)Nc1nc2c(s1)CCCC2,-16%,-17%
COc1ccc(-c2c(C#N)c(SCc3c(C)noc3C)nc3c2C(=O)CC(C)(C)C3)cc1,3%,3%
COc1ccccc1NS(=O)(=O)c1cccc(NC(=O)c2cc3ccccc3oc2=O)c1,-9%,-22%
CCc1nc2c(OCc3ccc(Cl)cc3)cccn2c1N(C=O)Cc1ccccc1,-12%,i
CCC(=O)OCc1c(C(F)(F)F)nn(C)c1Sc1ccc(F)cc1,-7%,-10%
CC(=O)Nc1ccc(S(=O)(=O)N2CCN(C(=O)N3CCCCC3)CC2)cc1,4%,-11%
CCOc1ccc(-c2cc(C(=O)NCCCN3CCCC3)c3ccccc3n2)cc1,-13%,i
Cc1oc(-c2ccc(C(F)(F)F)cc2)nc1CN(Cc1ccccn1)C[C@@H]1CCC(=O)N1,-27%,-25%
C[C@H](CO)N1C[C@H](C)[C@H](CN(C)Cc2cncnc2)Oc2cc(Br)ccc2S1(=O)=O,-8%,0%
CSc1ncccc1C(=O)Nc1ccc(F)c(F)c1F,2%,-8%

# 19 of these compounds in a different format:
Compound	VACV Venus inh	Vaccinia mCherry
CN1/C(=C/C(=O)c2nc(S(C)(=O)=O)ncc2Cl)C(C)(C)c2ccccc21	?	28µM*
CCSc1ncc(Cl)c(C(=O)Nc2nnc(CC)s2)n1	-4%	-8%
Cc1ccc(-c2nc3cc(C(C)C)ccc3o2)cc1NC(=O)c1cc2ccccc2o1	-12%	-17%
CSc1cccc(Nc2cc(C(=O)NCCc3ccc(Cl)cc3)c3ccccc3n2)c1	?	?
O=C(Nc1ccc(-c2noc(-c3ccccc3F)n2)cc1)c1cccs1	-5%	i
CC(=O)c1cccc(NC(=O)CN2C(=O)c3ccccc3Sc3ncccc32)c1	4%	-5%
N/C(=N\OC(=O)CCCN1C(=O)c2ccccc2C1=O)c1ccccn1	0%	5%
Cc1cccc(NC(=S)/N=C(\N)Nc2nc(C)c3cc(C)ccc3n2)c1	-17%	?
COC(=O)/C(=C\Nc1cccc(Cl)c1C)c1ncc(C(F)(F)F)cc1Cl	?	.
Cc1nc(SCC(=O)NCc2cccs2)nc(C)c1C	-6%	5%
Cc1ccc(NC(=O)C(C)OC(=O)/C=C/c2ccccc2)cc1 (configuration not stated)	-5%	i
NC(CSC(c1ccccc1)(c1ccccc1)c1ccccc1)C(=O)O (configuration not stated)	-25%	?
O=C(COc1ccc(F)cc1)Nc1nc2c(s1)CCCC2	-16%	-17%
COc1ccc(-c2c(C#N)c(SCc3c(C)noc3C)nc3c2C(=O)CC(C)(C)C3)cc1	3%	3%
COc1ccccc1NS(=O)(=O)c1cccc(NC(=O)c2cc3ccccc3oc2=O)c1	-9%	-22%
CCc1nc2c(OCc3ccc(Cl)cc3)cccn2c1N(C=O)Cc1ccccc1	-12%	i
CCC(=O)OCc1c(C(F)(F)F)nn(C)c1Sc1ccc(F)cc1	-7%	-10%
CC(=O)Nc1ccc(S(=O)(=O)N2CCN(C(=O)N3CCCCC3)CC2)cc1	4%	-11%
CCOc1ccc(-c2cc(C(=O)NCCCN3CCCC3)c3ccccc3n2)cc1	-13%	i

# Other structures follow.
SMILES,VACV Venus inh,Vaccinia mCherry
Cc1cc(=O)c2ccc(NC(=O)c3ccccc3)cc2[nH]1,-14%,-1%
Cc1ccc2c(CN3CCN(c4ccc(Cl)cc4)CC3)cc(=O)oc2c1,-20%,-12%
CCOC(=O)c1ccc(N2CCN(c3cc(C)ccc3C)CC2)c(N)c1,-4%,?
Cc1nc2c(cc1C(=O)N/N=C/c1ccc(O)c(O)c1)c(=O)n(C)c(=O)n2C,11%,3%
COc1ccc(NC(=O)CCc2ccc(OC)c(OC)c2)cn1,-8%,-17%
COc1ccc(NC(=O)C/C(C)=N/NC(=O)c2cnccn2)cc1,-7%,-9%
O=C(c1cc(-c2ccc(F)cc2)on1)N1CCOCC1,3%,0%
CCc1ccc(OCC(O)CN2CCC(CN3C(=O)c4cccc5cccc(c45)C3=O)CC2)cc1 (configuration not stated),-4%,-13%
C=CCNC(=S)/C(=C(/[O-])c1ccc([N+](=O)[O-])cc1)[n+]1ccccc1,3%,4%
Cc1ccc(CNC(=O)CSc2nc(=O)n3ccc(C)cc3n2)cc1,-2%,-12%
O=C(NCCCN1CCOCC1)c1cc2c(s1)CCCC2,-13%,.
COc1ccccc1N1CCN(C(=O)C(CCSC)NS(=O)(=O)c2ccc3c(c2)oc(=O)n3C)CC1 (configuration not stated),-14%,-17%
CCc1ccc(Nc2oc(C)cc(=O)c2C(C)=O)cc1,-1%,-8%
Cc1cc(Nc2cccc(C(F)(F)F)c2)n2nc(C)nc2n1,10µM*,.
Cc1nc(SCC(=O)O)n[nH]1,2%,i
CC1CC(=O)N(CC(=O)Nc2ccc(F)cc2)c2ccccc2S1(=O)=O (configuration not stated),-9%,-5%
Cc1ccc(-c2c(C)sc3ncn(CC(=O)N4CCOCC4)c(=O)c23)cc1C,-4%,-16%
COc1ccc(OC)c(S(=O)(=O)N2CCC(C(=O)NCc3ccncc3)CC2)c1,-13%,-8%
Cc1c(Br)cc(C(=O)NCc2ccco2)c(C)c1C,4%,.
CCN(CC)CCC(=O)c1ccc(F)cc1,4%,i
CCc1nnc(NC(=O)CCN(c2ccc(C)cc2)S(=O)(=O)c2ccccc2)s1,-14%,-22%
O=C(NCc1ccccc1Cl)c1cccc2c1C(=O)c1ccc(-c3ccc(OC(F)(F)F)cc3)cc1S2(=O)=O,10µM*,?
O=C1NC[C@H](Cc2ccccc2)N(CC2CCN(CCCC3CCCC3)CC2)C1=O,-15%,-27%
O=C(NCC1Cc2cc(-c3cncnc3)cc(Cl)c2O1)c1cccc(Cn2cccn2)c1 (configuration not stated),-3%,-3%
Cc1ccc(S(=O)(=O)N2C[C@H]3[C@H]4C(=O)N(C5CCCCC5)C(=O)[C@H]4CC(=O)[C@H]3[C@@H]2c2ccccc2F)cc1,-14%,-19%
Cc1ccc(N2C(=O)c3ccccc3C2Nc2ccc(S(=O)(=O)N3CCCCC3)cc2)nc1 (configuration not stated),-12%,i
Cc1ccc(NC(=O)CCSc2nc(-c3ccc4c(c3)OCO4)cc(C(F)(F)F)n2)c(C)c1,-5%,-12%
COc1ccccc1CNCc1cccs1,-14%,.
Cc1cc(C)c2cc(CN(CC3CCCO3)S(=O)(=O)c3ccc4c(c3)OCCO4)c(=O)[nH]c2c1 (configuration not stated),-26%,-23%
O=C(N/C(=C\c1ccco1)C(=O)N1CCOCC1)c1ccco1,-19%,-2%
Cc1cccc(C)c1NC(=S)N(CCc1ccncc1)C(C)C,-3%,-5%
Cc1nn(-c2ccccc2)c(C)c1NC(=O)COc1ccc(Br)cc1Cl,-7%,-17%
COc1ccc([N+](=O)[O-])cc1NC(=O)COC(=O)C=C(C)C,-15%,-13%
O=C(CSc1nnc2ccc(-c3cccnc3)nn12)Nc1ccccc1F,-12%,-17%
COc1ccccc1NC(=O)CSc1n[nH]c(Cc2ccccc2)n1,-25%,-5%
COc1ccc2c(=O)c(-c3ccccc3C)c(C)oc2c1,-29%,-6%
COc1ccc2[nH]c(=O)c(CN(CCO)S(=O)(=O)c3ccc4c(c3)OCCO4)cc2c1,-7%,-15%
O=C(COC(=O)[C@H](Cc1ccccc1)NC(=O)c1cccs1)NC1CCCCC1,-8%,-8%
CC(=O)Nc1ccc(OCC(O)CN2CCN(c3ccc(Cl)cc3)CC2)cc1 (configuration not stated),-9%,i
Nc1ccc(S(=O)(=O)Nc2ccc(Cl)nn2)cc1,-2%,-18%
CC1CCCCN1Cc1nc2c(c(=O)n(C)c(=O)n2C)n1CCc1ccccc1 (configuration not stated),25%,.
Cc1nc(Nc2nc3c(c(=O)[nH]2)CCC3)nc2ccccc12,-9%,-17%
Cc1ccc(-n2c(SCC(N)=O)nc(O)cc2=O)cc1,0%,-8%
CCOC(=O)Cc1nnc(NC(=O)CSc2nc3ccccc3[nH]2)s1,-5%,i
COc1cccc(NC(=O)C(=O)NCCC2CCCCN2S(=O)(=O)c2cccs2)c1 (configuration not stated),-23%,-29%
Cc1ccc(C(=O)NCc2ccco2)c(C)c1,-6%,i
Cc1ccc(-c2noc(CCC(=O)NC3CCCc4ccccc43)n2)cc1 (configuration not stated),-27%,.

# Screening data (PubChem BioAssay)
